Source: PubChem BioAssay
Tgondii IFNg: T. gondii growth inhibition under IFN-gamma. actives 3.8% (n = 69,000). Toxoplasma gondii growth in IFN-gamma-treated host cells; active compounds read low; reference of the scale not given here. activity change, negative = inhibition, %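 (about 20 µM by stock and volumes)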;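 active = below -70%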;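 also: host cells are HeLa cells infected with Toxoplasma gondii; parasite growth read as luciferase light; one replicate is shown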
Numbers without * were called inactive; i = inactive; & = joins results of further samples. This is a subset; the hit share may differ from the screen's.

SMILES	Tgondii IFNg
Cc1ccc(CN2CCC3(CCC3NC(=O)c3cnccn3)CC2)o1 (stereo not given)	1
CC(C)CN(C/C=C/c1ccccc1)C(=O)C1CC2(CCNCC2)CN1 (stereo not given)	83
C=CCN1C(=O)C2(NCCc3c2[nH]c2ccc(OC)cc32)c2ccccc21 (stereo not given)	-8
Nc1nnc(CC(=O)N2CCCC2)s1	30
CO[C@H](c1ccccc1)c1n[nH]c(Cc2ccccc2)n1	1
O=C(OCc1ccccc1)N1CCOCCN(C(=O)OCc2ccccc2)CCOCC1	-15
Cc1cccc(C2c3[nH]c4ccccc4c3CCN2C(=O)C(=O)CCc2ccccc2)n1 (stereo not given)	-14
COc1cc(CNc2nnnn2C)ccc1OCc1ccc(F)cc1Cl	14
CS(=O)(=O)c1ccc(C(=O)Nc2ccccc2)cc1	49
COc1ccc(-n2ccnc2CN2CC[C@H](O)C[C@@H]2C(=O)O)cc1	-20
O=C(NC1CCCC1)N1CCCCN2[C@H](CO)[C@H](c3ccc(-c4cccnc4)cc3)[C@@H]2C1	-12
CO[C@H]1CC[C@H]2CCOc3c(C#N)cccc3C(=O)N(C)C[C@@H](OC)[C@H](C)C(=O)N(C)C[C@@H]1O2	-18
Cn1ccc(C(=O)NC2CCC23CCN(Cc2ccco2)CC3)c1 (stereo not given)	-7
COc1ccc2c3c([nH]c2c1)[C@H](CO)N(S(=O)(=O)c1ccc(C)cc1)CC31CCN(C(=O)Cc2cccnc2)CC1	32
CN1C(=O)CCc2cc(NC(=O)c3ccc(F)cc3)ccc21	81
O=C(Cc1c(O)c2ccccc2oc1=O)c1ccc2c(c1)OCCO2	58
Cc1ccccc1NC(=O)CC(=O)NCc1ccc2nonc2c1	-2
CC(=O)N1[C@H](CO)[C@@H]2c3ccccc3N(C(=O)c3ccc(F)cc3)C[C@@H]21	-1
CCC(c1cccnc1)N(C)C(=O)c1ccc(S(N)(=O)=O)cc1 (stereo not given)	7
CN(C)c1ncnc2c1CCN(C(=O)C(C)(C)NC(=O)c1cccs1)C2	5

Compounds shown so far with an NH in an aromatic ring (four):
SMILES	Tgondii IFNg
C=CCN1C(=O)C2(NCCc3c2[nH]c2ccc(OC)cc32)c2ccccc21 (stereo not given)	-8
CO[C@H](c1ccccc1)c1n[nH]c(Cc2ccccc2)n1	1
Cc1cccc(C2c3[nH]c4ccccc4c3CCN2C(=O)C(=O)CCc2ccccc2)n1 (stereo not given)	-14
COc1ccc2c3c([nH]c2c1)[C@H](CO)N(S(=O)(=O)c1ccc(C)cc1)CC31CCN(C(=O)Cc2cccnc2)CC1	32

The listing continues:
SMILES	Tgondii IFNg
O=C(C1CCCO1)N1CCC(NCCCn2ccc3ccccc32)CC1 (stereo not given)	3
Cc1cc(Nc2nccs2)cc(C2CCCN2C(=O)CCCc2ccc(F)cc2)n1 (stereo not given)	-20
O=C(c1ccoc1)N1CCC(N2CCc3ccccc32)CC1	88
C=CCNC(=O)c1cccnc1N1CCN(Cc2ccncc2Cl)CC1	-4
C[C@@H]1CN([C@@H](C)CO)C(=O)c2cc(N(C)C)ccc2O[C@H]1CN(C)CC1CCCCC1	7
COc1ccc(CNC(=O)CCC2N=C3c4ccccc4N=C(SCc4ccccc4Cl)N3C2=O)cc1 (stereo not given)	-28
COc1ccc(NC(=O)N(C)C[C@@H]2Oc3c(NC(=O)CCCCCC(=O)Nc4ccccc4N)cccc3C(=O)N([C@H](C)CO)C[C@H]2C)cc1	12
Cc1ccc(C)c(-c2coc(-c3ccc(NC(=O)COc4ccccc4C)cc3)n2)c1	-40
O=c1ccc2cc(S(=O)(=O)N3CC=C(c4ccccc4)CC3)ccc2[nH]1	-21
CCOC(=O)[C@@]12CCCN(S(=O)(=O)CC)C[C@@H]1CN(C(C)C)C2	1
Cc1ccc(NC(=O)N2CCC(c3nc(C(=O)N(C)C)c(C)o3)CC2)c(C)c1	14
Cc1cc(C)n(CC(C)NC(=O)c2cccc(NCc3cccnc3)c2C)n1 (stereo not given)	42
CN(C)CCNC(=O)[C@@H]1CCS(=O)(=O)[C@H]2CN(C(=O)Nc3ccccc3)C[C@@H]12	3
Cn1cccc1-c1cc(C(=O)N2CCc3c(nc[nH]c3=O)C2)[nH]n1	-7
O=C(CN1C(=O)CC(c2ccccc2)CC1=O)NCCS(=O)(=O)N1CCCCC1	20
CC(=O)NCC(=O)NC1CC2(CCN(c3ncccn3)CC2)c2ccccc21 (stereo not given)	-10
CC1Oc2ccc(NC(=O)Cc3nnn(C(C)C)n3)cc2NC1=O (stereo not given)	9
COCCC(=O)NCC1Cn2nnc(-c3cncnc3)c2CO1 (stereo not given)	3
CCOCCCNC(=O)Cn1ncc2c(N3CCN(c4ccccn4)CC3)ncnc21	85
Cn1c(=O)n(Cn2nnc3ccccc32)c2cccnc21	-47
O=C(NCC[C@H]1CC[C@@H](NC(=O)c2ccccc2F)[C@H](CO)O1)c1cnccn1	-7
COC(=O)c1ccc(S(=O)(=O)N2CCc3c(ncnc3N(C)C)C2)n1C	-20
O=C(OCc1sccc1Oc1ccccc1)c1ccc(Cl)cc1	5
CCc1ncc2c(n1)CN(C(=O)c1cccc(-c3ncn[nH]3)c1)C2	-1
C[C@H]1CN([C@@H](C)CO)C(=O)c2cc(NC(=O)Cn3cnnn3)ccc2O[C@@H]1CN(C)C(=O)Nc1ccc2c(c1)OCO2	6
O=C1c2ccccc2C(=O)N1Nc1ccccc1	11
CCN1CCC2(CC1)OC(=O)C(C)=C2C(=O)Nc1ccc(N(CC)CC)cc1C	139
Cc1ccc(Nc2nc3nonc3n3cnnc23)cc1Cl	-106*
C[C@H](CO)N1C[C@H](C)[C@@H](CN(C)Cc2cccc(C(=O)O)c2)OCc2ccccc2-c2ccccc2C1=O	-2
CCC(CC)C(=O)N1CCc2nc(N3CCCC3)nc(C)c2CC1	7
CCCc1cc(Cn2ccnc2-c2ccc(F)c(F)c2F)on1	34
C[C@@H]1CN([C@@H](C)CO)C(=O)Cc2cc(NC(=O)Nc3ccc(F)cc3)ccc2O[C@@H]1CN(C)S(C)(=O)=O	-12
CCOc1cc2c(cc1CN1CCC3(CC1)CNC(=O)C3)CCC2	-10
CS(=O)(=O)NC[C@@]12COC[C@H]1CN(C(=O)COC1CCCC1)C2	8
CO[C@@H]1CN(C)C(=O)c2cc(NC(C)=O)ccc2OC[C@@H](C)N(S(C)(=O)=O)C[C@H]1C	-7
COc1cccc(CCNC(=O)c2cc3c(c4ccccc4n3C(C)C)n2S(C)(=O)=O)c1	-15
Nc1c(-c2nnc(-c3ccccc3)o2)sc2nc(-c3ccccc3)cc(-c3ccccc3)c12	-87*
O=C(NCc1ccco1)N1CCC2(CC1)Nc1cccnc1NC2=NCc1ccccc1	-52
COc1ccc2c(c1)CCC1C2CCC2(C)C(=O)CCC12 (stereo not given)	-14
COc1cc2c(cc1CN1CCN(c3ncc(F)cn3)CC1)OCCCO2	-4

7 neighbouring compounds out of the list so far, quoted:
SMILES	Tgondii IFNg
CCOc1cc2c(cc1CN1CCC3(CC1)CNC(=O)C3)CCC2	-10
CS(=O)(=O)NC[C@@]12COC[C@H]1CN(C(=O)COC1CCCC1)C2	8
CO[C@@H]1CN(C)C(=O)c2cc(NC(C)=O)ccc2OC[C@@H](C)N(S(C)(=O)=O)C[C@H]1C	-7
COc1cccc(CCNC(=O)c2cc3c(c4ccccc4n3C(C)C)n2S(C)(=O)=O)c1	-15
Nc1c(-c2nnc(-c3ccccc3)o2)sc2nc(-c3ccccc3)cc(-c3ccccc3)c12	-87*
O=C(NCc1ccco1)N1CCC2(CC1)Nc1cccnc1NC2=NCc1ccccc1	-52
COc1ccc2c(c1)CCC1C2CCC2(C)C(=O)CCC12 (stereo not given)	-14

Next records
SMILES	Tgondii IFNg
CCN(CC)Cc1cnc2c(C(=O)NC3CCCCC3)cnn2c1	-25
Cc1nc(CN2C(=O)COC3(CCN(Cc4ccco4)CC3)C2C)cs1 (stereo not given)	235
CCO[C@H]1CN(C(=O)N2CCCC2)[C@H]2CCCO[C@@H]12	-96*
O=C(c1ccccc1)N1CCC2(CC(Oc3cccnc3)CO2)C1 (stereo not given)	0
COc1cccc(-c2noc(-c3c(O)c4ccccc4[nH]c3=O)n2)c1OC	23
COc1ccccc1N1CCN(CCCCNC(=O)c2ccc(Cl)cc2)CC1	-61
CC1C=NC(S(=O)(=O)N2CC[C@H]3[C@@H](CO)N(C)c4ccc(C5=CCCCC5)cc4[C@H]32)=N1 (stereo not given in full)	15
CCN(CC)S(=O)(=O)c1ccc2c(c1)cc(C(=O)N1CCCC1)n2C	53
COc1ccc2c3c(n(C)c2c1)[C@@H](CO)N(Cc1nccs1)CC31CCN(C(=O)CN(C)C)CC1	5
C[C@@H]1CN([C@@H](C)CO)C(=O)c2cccc(NS(C)(=O)=O)c2O[C@@H]1CN(C)Cc1ccc(-c2ccccc2)cc1	-1
O=C(C[C@@H]1CC[C@@H](NC(=O)c2ccc(F)cc2)[C@H](CO)O1)NCCc1ccccc1	-4
Nc1cccc(-c2cn3ccsc3n2)c1	383
CCn1c(CC2CCN(Cc3cc(C#CCO)cs3)CC2)n[nH]c1=O	-9
O=C(Nc1ccc(F)cc1)N1C[C@@H]2[C@H](c3ccccc31)[C@H](CO)N2C(=O)c1ccncc1	7
COc1ccc2c3c(n(C)c2c1)[C@H](CO)N(C)CC31CN(S(=O)(=O)c2cccs2)C1	23
O=C1c2ccccc2C2(c3ccccc3)NCCN12 (stereo not given)	3&-54
CCOC(=O)c1nc(NCCc2cc(OC)ccc2OC)c2ccccc2n1	6
CC(=O)N1CCC2(CCOCC2COc2cccnc2)CC1 (stereo not given)	-3
O=C(CCc1cccnc1)N1CCC2(CN(Cc3ccccc3Cl)C2)C1	-39
COc1ccc(NC(=O)N(C)C[C@H]2Oc3ccc(NC(=O)CCN4CCOCC4)cc3C(=O)N([C@H](C)CO)C[C@@H]2C)cc1	6
CCN(CC)S(=O)(=O)N1CCc2nc(-c3ccc(C(F)(F)F)cc3)sc2C1	-68
O=C(Nc1nccs1)c1cccc(CN2CCCCC2c2cccnc2)c1 (stereo not given)	2
C[C@H]1CN([C@@H](C)CO)C(=O)Cc2cc(NS(=O)(=O)c3cccs3)ccc2O[C@H]1CN(C)CC1CCCCC1	-22
CC(C)(C)c1csc(CCNC(=O)c2cn3cc(Cl)ccc3n2)n1	12
Cc1ccc(-c2ccc(C(=O)N3CCOCC3)o2)c(-n2cccn2)c1	-4
CCC(C)Nc1ncnc2cc(OC)c(OC)cc12 (stereo not given)	-1
N#Cc1cccc(NC(=O)Cn2c(=O)cc(C(=O)N3CCCCC3)c3ccccc32)c1	-55
COCCN1C(=O)CCc2cc(NS(=O)(=O)c3ccccc3Br)ccc21	-2
O=C(NC(=O)c1csc(-c2ccc(C(F)(F)F)cc2Cl)n1)Nc1ccc(F)cc1	-98*
Cc1ccc(C(=O)N2CCOCC3(CCC(CN(C)C)O3)C2)cn1 (stereo not given)	129
CCOC(=O)CC1(NC(=O)N2CCC3(CC2)Nc2cc(OC)ccc2-n2cccc23)CCCCC1	222
C[C@@H](NC(=O)C[C@H]1C=C[C@H](NC(=O)c2cccnc2)[C@@H](CO)O1)c1ccccc1	-5
O=C(Nc1cnn(-c2ncc(N3CCSCC3)cn2)c1)C1CCCC1	47
CC(Cn1cncn1)NCc1cccnc1Oc1ccc(F)c(F)c1 (stereo not given)	9
CC(NC(=O)c1cccnc1)C(=O)O (stereo not given)	31
O=C(NCc1csc(-c2cnccn2)n1)c1cc2ccccc2s1	-1
O=C(CCC1CCCN(C(=O)C2=CCCCC2)C1)NCc1ccccc1F (stereo not given)	-28
CC(=O)Nc1ccsc1C(=O)N1CCN2C(=O)CN(C)C(=O)C2C1 (stereo not given)	2
CCN(CCCCCN(C)C)Cc1cc2ccccc2o1	-17
Cc1cc(C)n(Cc2nc(-c3ccc(NC(=O)C4CCCC4)cc3)oc2C)n1	-11

Filtered by structure: those above containing a CF3 group (2)
SMILES	Tgondii IFNg
CCN(CC)S(=O)(=O)N1CCc2nc(-c3ccc(C(F)(F)F)cc3)sc2C1	-68
O=C(NC(=O)c1csc(-c2ccc(C(F)(F)F)cc2Cl)n1)Nc1ccc(F)cc1	-98*

The main list resumes, repeating the 3 entries before the break.
SMILES	Tgondii IFNg
CC(=O)Nc1ccsc1C(=O)N1CCN2C(=O)CN(C)C(=O)C2C1 (stereo not given)	2
CCN(CCCCCN(C)C)Cc1cc2ccccc2o1	-17
Cc1cc(C)n(Cc2nc(-c3ccc(NC(=O)C4CCCC4)cc3)oc2C)n1	-11
CCCN1CC(N2Cc3ncccc3C2=O)CC1=O (stereo not given)	2
Cc1cc(C(=O)Nc2csc(-c3ccc(Cl)cc3)c2)c(C)o1	41
O=C(NCCNC(=O)C1CC2(CCNCC2)CN1)c1ccc(F)cc1 (stereo not given)	1
O=C1NCCN2CCN(C(=O)C3CCN(C4CCCC4)CC3)CC12 (stereo not given)	12
Cc1ccc(S(=O)(=O)Nc2ccc(S(=O)(=O)Nc3cc(C)nc(C)n3)cc2)cc1	16
O=S(=O)(c1ccccc1)N1CC2(C1)[C@H](c1ccccc1)[C@H](CO)N2CC1CCOCC1	-49
Cc1ccc(CN2CCC3(CC2)CNC(=O)CO3)s1	7
Cc1ccccc1Nc1nnc(-c2ccccc2)c(-c2ccccc2)n1	15
O=C1NCCN(Cc2cccc(Oc3ccccc3)c2)C1CC(=O)N1CCOCC1 (stereo not given)	-1
CCOc1ccccc1-c1nc(Cn2nnc(C(=O)Nc3cccc(C)c3C)c2C)c(C)o1	43
CO[C@@H](CN(C)C(=O)c1cnccn1)[C@H](C)CN([C@@H](C)CO)S(=O)(=O)c1ccccc1	-3
CC(C)c1cc(N2CCCC(CO)(CCCc3ccccc3)C2)ncn1 (stereo not given)	-60
O=C1NC(=O)[C@@H](c2cn3c4c(cccc24)CCC3)[C@@H]1c1c[nH]c2ccccc12	-40
COc1ccc2c3c([nH]c2c1)[C@@H](CO)N(Cc1ccccc1F)CC31CCN(C(=O)C2CC2)CC1	181
C[C@H](NC(=O)C[C@H]1CC[C@H]2[C@H](COc3ccc(NC(=O)C4CCOCC4)cc3C(=O)N2C)O1)c1ccccc1	12
CCC(C(=O)N1CC(c2cccnc2)C1)n1cccn1 (stereo not given)	4
COc1ncccc1C(=O)N1CCc2nnc(CCc3ccccc3)n2CC1	3
O=C(Nc1ccc2c(c1)OCO2)N1CCC2(CC1)Nc1cc(F)ccc1-n1cccc12	i
O=C1c2ccccc2C(=O)N1/N=C/c1ccc(Oc2ccc([N+](=O)[O-])cn2)cc1	-1
